Bioassay records: PubChem, several laboratories
Mtb betalactam: beta-lactam sensitization of Mtb H37Rv, H37Rv; inhibition, % at 25 µM; 330,000 tested, 0.27% active; M. tuberculosis H37Rv growth with meropenem, percent inhibition; hits of this screen are not shown here;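 active means about 74% or more and at least 40 points above the plate without the antibiotic, then above 30% in a dose series; inconclusive means first-round hits that could not be retested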;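 further: growth measured after seven days incubation then overnight dye step; 0% = bacteria only wells and 100% = bacteria with antibiotic; twin plates without the antibiotic show which effects depend on it; some results filed as inactive read as strong as hits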
Arbovirus anti: antivirals against arbovirus infection, primary screen, cell-based, full library, 10K replicate subset; arbovirus infection cell-based antiviral screen; inhibition, % at 10 µM; 200,000 tested, 0.37% active; AID 1251, 2008;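 active means inhibition from about 30%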;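 further: bluetongue infection of BSR cells; cell survival read as ATP light after 72 h; 0% = infected wells without compound and 100% = uninfected wells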
YopH inh: YopH tyrosine phosphatase inhibitors, primary screen, biochemical, fluorescence Ex485/Em525 | AID 898, 2007 | inhibition, %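 (about 10 µM by stock and volumes)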 | 140,000 tested, 0.16% active;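 active means inhibition of 50% or more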;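 further: controls were vehicle for no effect and minimum signal wells for full effect; inactives centre near -20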
RecA intein inh: Mtb RecA intein splicing inhibitors, primary screen, biochemical, fluorescence, HTS. Protein RecA (Mycobacterium tuberculosis (strain ATCC 25618 / H37Rv)), P9WHJ3. cell-free RecA intein splicing. inhibition, %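 (about 9 µM by stock and volumes)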. 290,000 tested, 0.75% active. AID 2221, 2009; in the data active means inhibition above about 30%; inconclusive means no clear call, values can overlap the other calls;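 further: 0% = vehicle wells and 100% = reference inhibitor control wells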
Target sequence (P9WHJ3 whole entry, looked up): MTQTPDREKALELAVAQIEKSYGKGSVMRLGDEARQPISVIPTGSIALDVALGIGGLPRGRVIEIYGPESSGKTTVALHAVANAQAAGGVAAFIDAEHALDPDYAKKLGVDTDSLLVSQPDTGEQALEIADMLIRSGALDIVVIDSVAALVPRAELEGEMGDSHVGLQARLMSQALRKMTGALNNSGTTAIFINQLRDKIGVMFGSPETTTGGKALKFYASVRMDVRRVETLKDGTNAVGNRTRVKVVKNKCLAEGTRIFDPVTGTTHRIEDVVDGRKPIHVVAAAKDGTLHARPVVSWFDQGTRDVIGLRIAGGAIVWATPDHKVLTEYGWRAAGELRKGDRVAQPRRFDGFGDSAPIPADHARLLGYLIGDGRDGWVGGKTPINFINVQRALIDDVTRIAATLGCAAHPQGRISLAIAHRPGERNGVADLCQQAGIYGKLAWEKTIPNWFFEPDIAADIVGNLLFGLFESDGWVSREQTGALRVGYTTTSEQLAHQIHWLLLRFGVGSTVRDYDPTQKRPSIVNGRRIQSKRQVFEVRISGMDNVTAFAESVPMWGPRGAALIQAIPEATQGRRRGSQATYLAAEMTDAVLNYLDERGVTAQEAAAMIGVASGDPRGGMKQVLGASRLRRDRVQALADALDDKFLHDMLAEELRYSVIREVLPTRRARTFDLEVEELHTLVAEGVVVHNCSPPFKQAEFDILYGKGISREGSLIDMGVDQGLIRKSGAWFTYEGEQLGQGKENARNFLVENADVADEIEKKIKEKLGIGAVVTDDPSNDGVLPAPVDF
Mtb H37Rv: M. tuberculosis H37Rv growth inhibitors, H37Rv strain (AID 1626); M. tuberculosis H37Rv growth inhibition; higher % means a stronger effect; inhibition, % at 10 µM, or IC50 in µM where a hit was titrated; 220,000 tested, 0.95% active;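 active means confirmed in a dose series; inconclusive means inhibition above 80% but not taken into the dose series; inactive means below 80% or under 30% at every dose of the series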;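 further: bacteria incubated seven days before Alamar blue readout; 0% = bacteria only wells and 100% = bacteria with antibiotic wells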
Arbovirus anti repeat: further read-out of Arbovirus anti, marked with its call; inhibition, %; measured here: 10K subset replicate screen; many hits read low in the repeat;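 first of two repeat runs on a subset; 0% = infected and 100% = uninfected wells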
The depositor's hits bear a star; i = inactive; ? = inconclusive; . = no result given. Only part of the results is shown, so the mix of outcomes need not match the whole.

SMILES	Mtb betalactam	Arbovirus anti	YopH inh	RecA intein inh	Mtb H37Rv	others
O=C(O)/C=C/C(=O)Nc1ccc(F)cc1F	-3	-5	-20	0.5	-3%
COC(=O)CSc1nc2ccccc2c(=O)n1Cc1ccccc1	9	.	.	2.3	.
CN(C)Cc1c(O)ccc2cc(-c3nc4ccccc4n3C)c(=O)oc12	0	.	.	i	.
O=[N+]([O-])CC1(n2nc3ccccc3n2)CCCCC1	-1	.	.	-0.7	.
Cc1ccc(/C(O)=C2/C(=O)C(=O)N(c3ccccn3)C2c2cccc([N+](=O)[O-])c2)cc1 (stereo not given)	-3	.	.	1.4	.
CC1CCc2c(sc3nc(SCC(=O)NCc4ccco4)nc(N)c23)C1 (stereo not given)	-4	-10	-34	2.9	8%
Cc1c(C(=O)OCc2ccccc2)[nH]c2c1C(=O)CC(c1ccco1)C2 (stereo not given)	-4	-5	-28	3.1	1%	Arbovirus anti repeat=-7
O=C(NC1CCCCC1)C(c1cc2c(cc1[N+](=O)[O-])OCO2)N1CCCCC1 (stereo not given)	-8	-1	-18	-2.2	-2%
O=C(O)CCCC(=O)Nc1ccc(C(=O)N2CCCCC2)cc1	3	2	-23	2.0	11%
O=C(Nc1ccc(S(=O)(=O)N2CCCC2)cc1)Nc1ccc(F)cc1F	-14	.	.	1.3	.
Cc1c(NC(=O)c2ccc3c(c2)OCO3)cccc1-c1nc2ccccc2s1	3	-4	-10	5.0	-6%
CCc1nc2n[nH]c(N)c2c2c1CSC(C)(C)C2	2	-3	-16	5.3	-8%
Cc1cc(=O)oc2c3c(cc(OCC(=O)NC(C)C)c12)OC(C)(C)CC3	4	.	.	0.5	.
Cn1nnc2cc(C(=O)Nc3ccc(Cl)cc3)ccc21	1	-4	.	1.2	-5%
C=CCOc1c(/C=N\NC(N)=O)cccc1OC	-3	.	.	3.6	-11%
CN(Cc1cccnc1)Cc1cn(Cc2ccccc2)nc1-c1ccc2c(c1)OCO2	-10	-4	.	2.0	-3%
Cc1ccc(S(=O)(=O)N(CC(O)CN2C(=O)NC(C)(C)C2=O)c2cccc([N+](=O)[O-])c2)cc1 (stereo not given)	16	.	.	-0.2	.
CCOc1ccc(N2C(=O)CC(N(Cc3ccco3)C(C)=O)C2=O)cc1 (stereo not given)	-5	1	.	-0.4	-2%
Cn1cccc1/C=C(\C#N)c1ccccc1	-6	-8	.	3.8	.
CCc1cc(=O)oc2cc3occ(C)c3cc12	-2	6	-32	-0.6	2%
CC(C)Cc1nc2sc3c(NCc4ccco4)ncnc3c2c2c1COC(C)(C)C2	13	10	-28	3.2	-3%
CCOc1cc(NC(=O)Nc2ccccc2)c(OCC)cc1NC(=O)CC	1	.	.	-1.9	.
O=C(COC(=O)c1ccc(NS(=O)(=O)c2cccs2)cc1O)NC1CCCCC1	-5	.	.	4.8	8%
CCCc1cc(=O)[nH]c(SCC(=O)c2c(C)[nH]c3ccccc23)n1	1	.	.	-3.2	4%
O=C(CCS(=O)(=O)c1ccc(Br)cc1)NCc1cccs1	2	1	-20	-0.9	.
COCCNC(=S)N1CCN(C)CC1	-7	.	.	0.1	-3%
O=C(COC(=O)c1cccc(S(=O)(=O)N2CCCC2)c1)NCc1ccccc1	-8	-2	.	1.2	1%
CCOc1ccccc1NC(=O)c1ccccc1N(C)S(C)(=O)=O	-9	-5	19	.	-7%
COc1ccc(C(=O)NC(=S)NCc2ccco2)cc1Br	14	.	.	3.8	.
COc1cccc(CN(C)C(=O)CNC(=O)c2sc3ccccc3c2Cl)c1OC	1	.	.	1.7	.
COc1cc(NC(=O)c2ccccc2)c(OC)cc1NC(C)=O	2	-8	7	-0.3	-15%
CC(=Nc1ccccc1O)c1sc2ccccc2c1O	10	.	.	-6.1	11%
CCC(C)c1ccc(OCCCCN2CCOCC2)cc1 (stereo not given)	2	-10	-12	-4.7	-1%
OC(COc1ccc2c(c1)CCC2)Cn1cnc2ccccc21 (stereo not given)	19	12	-18	2.6	19%
COc1ccc(C(=O)Cn2nnc(-c3ccccc3NC(=O)C3CC3)n2)cc1	-9	6	-37	-3.1	19%
O=C(/C=C/c1ccc(-c2ccc(F)cc2)o1)N1CCCC1	98	8	.	1.7	14µM*
COc1ccc(-c2cc(C(=O)NCc3ccc(Cl)cc3)no2)cc1OC	3	-18	-17	-0.9	-7%
COc1ccc(Cl)cc1NC(=S)Nc1cccc(C)c1	-1	-9	.	-3.7	-3%
O=C(CSc1ncn[nH]1)Nc1cc(S(=O)(=O)N2CCCC2)ccc1Cl	-2	12	.	-4.2	2%
COc1cccc(/C=N/NC(=O)c2ccc(N(C)S(=O)(=O)c3ccccc3)cc2)c1OC	-2	5	.	4.2	6%

Structures listed so far that have bromine:
SMILES	Mtb betalactam	Arbovirus anti	YopH inh	RecA intein inh	Mtb H37Rv	others
O=C(CCS(=O)(=O)c1ccc(Br)cc1)NCc1cccs1	2	1	-20	-0.9	.
COc1ccc(C(=O)NC(=S)NCc2ccco2)cc1Br	14	.	.	3.8	.

The list continues:
SMILES	Mtb betalactam	Arbovirus anti	YopH inh	RecA intein inh	Mtb H37Rv	others
Cc1cc([N+](=O)[O-])ccc1NC(=O)C(C)[n+]1ccccc1 (stereo not given)	-1	3	.	.	5%
CC(C)N1CCC(NC(=O)NC2CCCCC2)CC1	-1	0	.	0.1	-5%
Cc1noc(/C=C/Nc2ccc(F)cc2F)c1[N+](=O)[O-]	74	-26	.	-0.1	8%
O=C(Nc1nc2c(Cl)cccc2s1)C1CC1	2	.	.	-3.1	.
Cc1ccc(CN2CCN(CC3CC4C=CC3C4)CC2)cc1 (stereo not given)	-16	-3	-29	-1.7	.
Cc1ccc(NC(=O)CN(C)C(=O)c2ccccc2OCc2c(C)noc2C)cc1	-3	.	.	0.5	.
CCOC(=O)C[n+]1c(C)sc2ccc(OC)cc21	2	-30	-36	-3.1	0%
O=C1CC(c2cccs2)CC2=C1C(c1ccccc1)n1ncnc1N2 (stereo not given)	-3	0	-4	-2.0	5%
COc1ccc(CC(=O)OCc2cc3ccc(C)cc3[nH]c2=O)cc1	3	9	-34	-1.5	3%
O=C(O)c1ccc(N=N/C(=N\Nc2ccc(C(=O)O)cc2)c2ccccc2)cc1	10	.	.	1.5	.
Cc1cccc(OCC(O)Cn2c(=N)n(CCN3CCCCC3)c3ccccc32)c1 (stereo not given)	?	-38	-18	0.6	5.9µM*
Cc1cccc(C(=O)Nc2nnc(S(=O)(=O)N3CCOCC3)s2)c1	11	.	.	0.1	.
CCOC(=O)C1(Cc2ccccc2C)CCCN(C(=O)c2ccnn2C)C1 (stereo not given)	-1	2	.	.	4%
CCOc1ccc(NC(=O)c2cc3cc4ccc(OC)cc4nc3o2)cc1	18	-12	-27	-2.1	2%
COc1ccc(CCN(C)C2CCCN(C(=O)Cn3cnnn3)C2)cc1OC (stereo not given)	?	.	.	-1.8	.
CCOc1ccc(NC(=O)C2CCCN(c3c(CC)c(C)nc4ncnn34)C2)cc1 (stereo not given)	3	.	.	-1.1	.
C=CCSc1nnc(-c2cccnc2)o1	-3	3	-34	-2.2	-6%	Arbovirus anti repeat=1
CC1CCN(C(=O)COC(=O)c2nn(C)c(=O)c3ccccc23)CC1	-8	.	.	-1.5	.
Cc1ccc(CNS(=O)(=O)c2c(N)n(C)c(=O)n(C)c2=O)cc1	-8	.	.	-0.6	.
CCc1nc2sc3c(c2c(=O)n1CCO)CCC3	-3	.	.	-0.1	.
CCCCCCn1c(C)nc2c(c1=O)c1nc3ccccc3nc1n2/N=C/c1ccco1	82	-17	-9	-0.3	-19%
CN(CC(=O)Nc1cccc(F)c1)C(=O)c1ccc(OCC2CCCO2)cc1 (stereo not given)	-9	.	.	-0.1	.
O=C(CC(Nc1ccccc1)c1ccccc1)C1CC1 (stereo not given)	-4	.	.	-2.0	-9%
CCc1ccc(N2NC(=O)/C(=C/C=C/c3ccco3)C2=O)cc1	95	-4	2	-8.9	?
Cc1ccccc1NC(=O)C1(C)Cc2ccccc2C(=O)O1 (stereo not given)	26	7	-24	2.0	-2%
C/C(=N\N(Cc1ccccc1)c1ccccc1)c1cccnc1	82	-31	.	6.3	76%
COc1cc(C(C)=O)ccc1OCC(O)CN1CCN(c2ccc(C)c(C)c2)CC1 (stereo not given)	1	.	.	-6.0	.
Cc1ccc(NC(=O)Cn2cnc3sc(C(=O)NCCN(C)C)c(C)c3c2=O)cc1Cl	.	-31	-38	-1.6	1%
Cc1cc(NC(=O)CCCn2ccc([N+](=O)[O-])n2)n(Cc2ccc(F)cc2)n1	1	10	.	-0.1	-1%
CN(CC(=O)NC1CCCCC1)S(=O)(=O)c1cccc2cccnc12	-7	-1	-12	.	-4%
O=C(CCn1c(=O)oc2ccccc21)NCc1ccco1	0	6	.	1.1	.
O=C(c1ccc2nc(-c3ccccc3)c(-c3ccccc3)nc2c1)N1CCCCC1	30	.	.	11	7%
Cc1ccc2c(c1)C=CC(C)(C)S2=O (stereo not given)	2	13	-7	-0.5	10%
Cc1ccc(-c2csc3nnc(SCc4csc(C)n4)n23)cc1	-5	-6	-3	2.0	3%
CC(=O)Nc1nc(C)nc(-c2ccccc2OC(C)=O)n1	-9	-8	-29	0.0	-3%
CN(C(=O)COC(=O)/C=C/c1ccc(F)cc1)c1c(N)n(Cc2ccccc2)c(=O)[nH]c1=O	-1	.	.	-1.8	.
c1ccc(CSc2nnc3ccc(-c4ccncc4)nn23)nc1	-1	9	.	0.3	-1%
CCO[C@H]1OC(C(=O)NC2CC2)=C[C@@H](c2csc3ccccc23)[C@@H]1CCCO	-4	1	.	0.1	-4%
COc1ccccc1NC(=O)CN1CCN(CC(=O)Nc2ccc3c(c2)OCO3)CC1	98	-4	-29	.	8%
CCC(C)C(NC(=O)[C@@H](NC(=O)c1ccccc1F)C(C)C)C(=O)OC (stereo not given in full)	-3	-4	1	-1.0	-8%
Cc1nc(-c2ccc(S(=O)(=O)Oc3ccc(Cl)cc3Cl)s2)cs1	5	.	.	0.9	4%
O=C(Cc1ccc(Cl)cc1)Nc1cc(Cl)ccn1	5	.	.	-1.5	.
O=C(NCc1cccnc1)c1cccc(F)c1	2	9	-33	-0.6	-7%
CC(C)NC(=O)N1CCN(c2ccncc2S(=O)(=O)N2CCOCC2)CC1	-13	-5	-10	-3.8	-4%
CCCCOc1ccc(C(=O)NNC(=O)C2C3C=CC(C3)C2C(=O)O)cc1 (stereo not given)	38	.	.	-1.9	.
N#Cc1c(-c2ccco2)cc(-c2ccccn2)nc1N	15	-12	-11	-26	58%
CCOc1ccc(NC(=O)C2CC(=O)N(C)C(=Nc3ccc4c(c3)OCO4)S2)cc1 (stereo not given)	-1	-3	-4	1.4	-2%
Cc1ccccc1OCC(=O)NNC(=O)c1cc(S(=O)(=O)N(C)C)ccc1N1CCCC1	-6	.	.	2.3	.
Cc1ccc(-c2nc(SCC(N)=O)c(C#N)c3c2CCCC3)cc1	-11	4	18	7.1	4%
CC(=O)c1cc2c(cc1N/C(=N/S(=O)(=O)c1ccc(C)cc1)c1ccccc1)OCO2	5	-4	-15	-10	-5%

An excerpt from above in order of heavy-atom count, rising:
SMILES	Mtb betalactam	Arbovirus anti	YopH inh	RecA intein inh	Mtb H37Rv	others
O=C(NCc1cccnc1)c1cccc(F)c1	2	9	-33	-0.6	-7%
N#Cc1c(-c2ccco2)cc(-c2ccccn2)nc1N	15	-12	-11	-26	58%
Cc1nc(-c2ccc(S(=O)(=O)Oc3ccc(Cl)cc3Cl)s2)cs1	5	.	.	0.9	4%

Going on with the list.
SMILES	Mtb betalactam	Arbovirus anti	YopH inh	RecA intein inh	Mtb H37Rv	others
Cc1ccc(SCc2cc(=O)n3[nH]c(C)nc3n2)cc1	38	2	-35	3.5	0%
O=C(NCc1ccco1)c1cnc2sccn2c1=O	-4	16	-25	-3.1	2%
COc1ccc(Cc2nnc(NC(=O)Nc3ccc(F)cc3)s2)cc1OC	-1	.	.	0.3	.
Cn1c(=O)c2c(ncn2CC(=O)N/N=C/c2c[nH]c3ccccc23)n(C)c1=O	-2	.	.	1.1	-6%

Compounds above containing a COOH group (4):
SMILES	Mtb betalactam	Arbovirus anti	YopH inh	RecA intein inh	Mtb H37Rv	others
O=C(O)/C=C/C(=O)Nc1ccc(F)cc1F	-3	-5	-20	0.5	-3%
O=C(O)CCCC(=O)Nc1ccc(C(=O)N2CCCCC2)cc1	3	2	-23	2.0	11%
O=C(O)c1ccc(N=N/C(=N\Nc2ccc(C(=O)O)cc2)c2ccccc2)cc1	10	.	.	1.5	.
CCCCOc1ccc(C(=O)NNC(=O)C2C3C=CC(C3)C2C(=O)O)cc1 (stereo not given)	38	.	.	-1.9	.
